# AID504770 – E. coli YBA685 growth inhibition, screen for V. cholerae RctB inhibitors; E. coli YBA685 rctB-dependent plasmid, OD600 growth, 3 h; hits give low values; AID 504770; z-score (test concentration not listed); 0.27% of 130,000 active;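 active = z-score under -2 on both plates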;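 note: wells of about 30 µL received 100 nL stock; score is relative to mean and SD of the test wells; the first replicate is given; strong numbers were not always called active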
# Ba CapD inh – CapD enzyme inhibition; 0.23% of 140,000 active; AID 492967; purified CapD enzyme, fluorescence intensity read-out; hits give low values; some hits fall short of the stated cut; z-score (test concentration not listed);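 active = z-score under -4 in either of two replicates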;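 note: stock transfer was 100 nL into about 40 µL; score is relative to mean and spread of the plate; one replicate is shown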
# Numbers without * were called inactive; / = no result given.
# Under each structure – AID504770 | Ba CapD inh
- C(=C\c1ccccc1)/C=N/N1CCN(Cc2cccc3ccccc23)CC1
  -0.45 | 0.1
- O=C(CCc1cn(Cc2ccc(F)cc2)c2ccccc12)NC1CCCC1
  -0.2 | 0.35
- O=C1c2ccccc2C(=O)N1CCC(=O)N1c2ccccc2Sc2ccccc21
  / | -0.095
- O=C1O/C(=C\C=C\c2ccccc2)c2ccccc21
  1.7 | 1.4
- O=C(c1cc(S(=O)(=O)N2CCc3ccccc32)ccc1F)N1CC(=O)N(CCc2ccccc2)C(=O)C1
  / | -0.17
- COc1ccc(CSc2nc(O)cc(=O)n2CC(C)C)cc1F
  0.45 | /
- CCC(C)NC(=O)C1CCN(Cc2nc(-c3ccc(OC)c(OC)c3)no2)CC1 (centres undefined)
  -0.3 | -1
- N#CCCn1cc(/C=C2\N=C(c3ccccc3)OC2=O)c(-c2ccc(F)cc2)n1
  0.15 | /
- CN(C)c1ccc(C2Nc3ccccc3O2)cc1 (centres undefined)
  / | 11
- COc1ccccc1C1CCN(Cc2c[nH]c3ccccc23)CC1
  1.9 | 0.62
- O=C(NCCNc1ncc(C(F)(F)F)cc1Cl)c1ccc(Cl)cc1
  / | 0.005
- COc1ccc(CN(C(=O)c2cc3sccc3n2C)C2CC(C)(C)NC(C)(C)C2)cc1
  -0.5 | /
- CC(C)(C)NC(=O)CN1CCC(n2nnc3cc(F)ccc32)CC1
  0.35 | /
- Nc1ccccc1C(=O)NCCc1ccncc1
  -0.05 | 0.55
- Cc1ccc2c(c1)NC(=O)C(CC(=O)NCCCN1CCN(c3cc(Cl)ccc3C)CC1)O2 (centres undefined)
  0.55 | 64
- C=CCNC(=O)C1CCN(S(=O)(=O)c2cccc3nsnc23)CC1
  -0.25 | /
- NNC(=S)Nc1ccc(-c2n[nH]c(=S)o2)cc1
  / | 15
- CC(C)(C)OC(=O)N1CCNc2ccccc2C1
  0.25 | /
- Cc1nc2nc(SCC(=O)O)nn2c(C)c1C
  -0.2 | -0.46
- O=C1c2cc(OCCOCCO)ccc2-c2ccc(OCCOCCO)cc21
  / | -0.18
- Cc1sc2nc3c4ccccc4c(NCC4CCCO4)nn3c(=O)c2c1C (centres undefined)
  0.15 | 15
- COc1c(Br)cc([N+](=O)[O-])c(OC)c1C(N)=O
  / | -0.36
- CC(C)(C)c1cc(NC(=O)COC(=O)C2CC2)n(-c2ccccc2)n1
  0.15 | /
- CN(C)CCOC(=O)c1cc2ccccc2o1
  -0.85 | 0.075
- CCCCCCCCCCCCN1C(=O)OC2(CCCCC2)C1(C)O (centres undefined)
  / | -0.045
- C=CCc1c(CCC)nc(SCC2CC2)[nH]c1=O
  0.3 | 0.72
- N#Cc1c(/N=C/c2ccc3c(c2)OCO3)oc(-c2ccccc2)c1-c1ccccc1
  1.8 | /
- O=C(NNc1nc2ccccc2o1)c1cccc(Cl)c1
  0.95 | /
- CC(CSc1ccc(Cl)cc1)C(=O)O (centres undefined)
  / | 0.4
- N#Cc1c(NC(=O)/C=C/c2ccco2)sc2c1CCCC2
  0.75 | /
- CN(CC(=O)NCCc1ccc(S(N)(=O)=O)cc1)c1ccccc1
  -1.2 | /
- CCOC(=O)c1sc(=S)n(-c2ccc(OC)cc2)c1C
  -0.65 | -0.33
- O=C1N=C(N2CCN(C3=NC(=O)/C(=C/c4cc(Br)ccc4O)S3)CC2)S/C1=C\c1cc(Br)ccc1O
  / | -0.21
- COC(=O)C(Cc1ccccc1)N=Cc1c(O)[nH]c(=O)[nH]c1=O (centres undefined)
  -0.4 | /
- OCCn1c(SCc2ccccc2)nc2ccccc21
  -0.85 | 0.15
- COCCN1C(=O)c2ccccc2C(C(=O)NCc2ccco2)C1c1c[nH]c2ccccc12 (centres undefined)
  -0.25 | -0.57
- O=C(O)CC1(CC(=O)Nc2cccc3nsnc23)CCCCC1
  0.6 | -1.3
- O=CN/N=C/c1c(O)ccc2ccccc12
  0.8 | /
- CCc1ccc(NC(=O)CCCN2C(=O)CCC2=O)cc1
  -2.7 | -0.23
- CCOC(=O)COc1ccc(/C=c2/sc3nc4cc(C)c(C)cc4n3c2=O)cc1OC
  / | 0.2
- COc1ccccc1N1CCN(C(=O)c2cccc(N3C(=O)C4C5C=CC(C5)C4C3=O)c2)CC1 (centres undefined)
  / | -0.42
- CC(=O)NC(Cc1ccc(OC(C)=O)cc1)C(=O)O (centres undefined)
  / | -0.6
- COc1ccc(Cn2c(CCC(=O)NCCC3=CCCCC3)nc3ncccc3c2=O)cc1
  0.2 | 7.1
- CCNc1ccc([N+](=O)[O-])cc1
  / | -4.5*
- CCCCc1nnc(SCC(=O)N2CCc3ccccc32)n1C
  2 | -0.81
- CCCCNC(=O)N(C)C1CC2C=CC1C2 (centres undefined)
  / | -0.39
- CCOC(=O)c1[nH]c(=O)[nH]c1CNc1ccccc1C#N
  -0.15 | /
- O=C(CCCn1c(=O)c2cccn2c2ccccc21)NC1CCCc2ccccc21 (centres undefined)
  -0.8 | -1.1
- COc1ccc(N(C)S(=O)(=O)c2c(C)noc2C)c(OC)c1
  1.7 | 0.14
- CCC(=O)N(Cc1ccc(OC)c(OC)c1)C1CC(C)N(C)CC1C (centres undefined)
  -0.2 | 0.46
- OCCNc1nc(N2CCN(c3ccccc3)CC2)nc2ccccc12
  -0.15 | 6.8
- CC1(C)COC(N2c3ccccc3Sc3ccccc32)=N1
  0.95 | /
- CN(C)C(=O)N(C)C1CCS(=O)(=O)C1 (centres undefined)
  3 | /
- Cc1cc(C(=O)CN(Cc2ccco2)S(=O)(=O)/C=C/c2ccccc2)c(C)n1C
  0.65 | /
- FC(F)(F)c1cc(NCc2ccccc2)nc(-c2ccccn2)n1
  0.15 | 3.5
- O=C(NCc1ccc(S(=O)(=O)NC2CCCCC2)s1)c1ccccc1
  -0.85 | -0.23
- CCc1c(C)nc2nc(NC(C)=O)[nH]n2c1=O
  -0.5 | -0.63
- CC1=C(C#N)C(c2ccccc2C(F)(F)F)C2=C(O1)C(=O)CCC2 (centres undefined)
  0 | 1
- CC(C)CNC(=O)c1cc(-c2ccc(Br)cc2)on1
  -0.2 | -0.03
- CC(=O)Nc1ccc(O[C@@H]2O[C@H](CO)[C@@H](O)[C@H](O)[C@H]2NC(C)=O)cc1
  -0.5 | -0.15

# Whole records as entered above. Order of values: AID504770 | Ba CapD inh
# Listed for `CN(C)C(=O)N(C)C1CCS(=O)(=O)C1` (centres undefined) = 3 | /
# Listed for `COc1ccc(N(C)S(=O)(=O)c2c(C)noc2C)c(OC)c1` = 1.7 | 0.14
# Listed for `CC(=O)Nc1ccc(O[C@@H]2O[C@H](CO)[C@@H](O)[C@H](O)[C@H]2NC(C)=O)cc1` = -0.5 | -0.15
# Listed for `CC1=C(C#N)C(c2ccccc2C(F)(F)F)C2=C(O1)C(=O)CCC2` (centres undefined) = 0 | 1
# Listed for `CCOC(=O)c1[nH]c(=O)[nH]c1CNc1ccccc1C#N` = -0.15 | /

# Next compounds follow:
# Under each structure – AID504770 | Ba CapD inh
- COC(=O)CSc1nnc2n(Cc3ccc(C)cc3)c(=O)c3ccccc3n12
  1.2 | /
- Cc1ccccc1CN1C=C(C(N)=O)C(C(F)(F)F)CC1 (centres undefined)
  -0.05 | 0.36
- CCC1CCCCN1c1cc(C)nc2cc(-c3cc(OC)cc(OC)c3)nn12 (centres undefined)
  0.15 | /
- Cn1c2nc(-[n+]3ccc(C(=O)[O-])cc3)nc-2c(O)n(C)c1=O
  -0.85 | -0.56
- Cc1nc2nc(-c3cccs3)cn2nc1C
  / | -0.37
- O=c1cc[nH]c2cccc(Cc3ccccc3)c12
  1.4 | 1.2
- COC(=O)c1c(NC(=O)CC2Nc3cc(C)c(C)cc3NC2=O)sc(C)c1C (centres undefined)
  -0.25 | -0.24
- Cc1nc(-c2ccccc2O)n[nH]1
  -0.4 | 9.6
- O=C(COc1ccc2ccccc2c1)NN1CCCCC1
  0.15 | 0.54
- CNC(=S)NN(c1ccccc1)c1ccccc1
  0.25 | /
- COC(=O)C12CC3CC(C1)C(=O)C(C3)C2
  0.35 | -0.37
- CC(C(=O)N(C)Cc1ccccc1)n1ccc2cc(S(=O)(=O)N3CCCCCC3)ccc21 (centres undefined)
  0.95 | 1.4
- O=C(c1ccco1)N1CCCCCCC1
  -0.95 | -0.23
- O=C(Cc1cccs1)Nc1nc(-c2ccccc2)cs1
  -0.7 | -0.12
- CC(Sc1ccc2c(c1)OCCO2)C(N)=O (centres undefined)
  0.2 | /
- CC(=O)Oc1ccccc1C(=O)N1CCc2nc3ncccc3cc2C1
  / | 0.15
- COCCN(C1CCN(C(=O)C(C)(C)C)CC1)S(=O)(=O)c1ccccc1
  / | -0.43
- COC(=O)C1=NNC2(c3cccc([N+](=O)[O-])c3)C(=O)N(c3ccccc3)C(=O)C12 (centres undefined)
  / | 6.1
- CCOC(=O)NN=C1c2ccccc2-c2ccccc21
  0.35 | -0.61
- C=CCn1c2ccccc2c2nnc(SCC(=O)Nc3ccc(S(=O)(=O)Nc4onc(C)c4C)cc3)nc21
  0.25 | -2.4

# Filtered by structure: the entries above containing a COOH group.
# Under each structure – AID504770 | Ba CapD inh
- Cc1nc2nc(SCC(=O)O)nn2c(C)c1C
  -0.2 | -0.46
- CC(CSc1ccc(Cl)cc1)C(=O)O (centres undefined)
  / | 0.4
- O=C(O)CC1(CC(=O)Nc2cccc3nsnc23)CCCCC1
  0.6 | -1.3
- CC(=O)NC(Cc1ccc(OC(C)=O)cc1)C(=O)O (centres undefined)
  / | -0.6

# As entered above.
# OCCn1c(SCc2ccccc2)nc2ccccc21 – Ba CapD inh: 0.15
# O=C(NNc1nc2ccccc2o1)c1cccc(Cl)c1 – AID504770: 0.95
# CN(C)CCOC(=O)c1cc2ccccc2o1 – AID504770: -0.85
# N#Cc1c(/N=C/c2ccc3c(c2)OCO3)oc(-c2ccccc2)c1-c1ccccc1 – AID504770: 1.8

# More results.
# Under each structure – AID504770 | Ba CapD inh
- O=C(/C=C/c1ccc(-c2ccc(F)cc2)o1)N1CCCCC1
  -1.1 | 14
- CCOC(=O)C1=C(C)OC(N)=C(C#N)C1c1cc(OC)ccc1OC (centres undefined)
  / | 0.52
- CC(SC(=S)N1CCOCC1)C(=O)O (centres undefined)
  0.8 | -0.5
- O=[N+]([O-])c1c(Nc2ccc(O)cc2)cc(N2CCOCC2)c2nonc12
  / | -1.1
- CC(C)N(C(=O)Cn1cnc2ccccc21)c1ccccc1
  0 | 0.29
- CC1CCc2sc(-c3nnc(SCC(=O)c4ccc(NS(C)(=O)=O)cc4)o3)cc2C1 (centres undefined)
  0.75 | /
- O=C(C1Cc2ccccc2N1C(=O)c1ccccc1)N1CCCC1 (centres undefined)
  0.4 | -0.62
- CN1C(=O)C2(NCCc3c2[nH]c2ccccc32)c2ccccc21 (centres undefined)
  -1.2 | /
- CCOC(=O)N1CCN(Cc2ccc(Cl)cc2)CC1
  -0.4 | -0.05
- CCC/C(O)=C1\C(=O)CC(C)(C)CC1=Nc1ccccc1OC
  0.8 | /
- O=C(O)CCC(=O)N1c2ccccc2NC2=C(C(=O)CC(c3ccc(F)cc3)C2)C1c1ccc([N+](=O)[O-])o1 (centres undefined)
  / | -2
- c1ccc(-n2ncc3c2ncn2cnnc32)cc1
  0.6 | 3.8
- O=C(CN1C(=O)C(=O)N(Cc2ccccc2)C1=O)c1ccc(-c2ccccc2)cc1
  / | -0.61
- Cc1ccccc1N1CCN(C(=O)OCCc2ccccc2F)CC1
  / | 0.3
- O=C(Nc1c2c(nc3c1CCC3)CCCC2)C1CCCCC1
  0 | 0.97
- Cc1cc(C)n(C(=O)c2ccccc2C(=O)O)n1
  -0.6 | /
- CN(C(=O)Cn1c(=O)n(CCC(=O)NCCc2ccccc2)c(=O)c2ccccc21)C1CCCCC1
  0.7 | 1.3
- CCSc1nc(C)cc(COC)c1C#N
  -0.2 | 3.9
- CC(=O)OCCn1c(=O)c2ccccc2c2ccccc2c1=O
  -0.35 | -0.28
- O=C(Cc1ccccc1)NCC(=O)OCc1ccccc1F
  -0.3 | -0.6
- COc1ccc(NC(=O)c2cccn(OCc3ccccc3)c2=O)cc1
  0.15 | -0.32
- O=C(NCCc1ccccc1)c1noc2c1CCCCC2
  -0.75 | 0.67
- COc1ccc(OC)c([N+](=O)[O-])c1/C=C/[N+](=O)[O-]
  / | -1.7
- O=c1[nH]c2ccccc2c(=O)n1Cc1ccccc1
  0.55 | 0.77
- COc1cc(Br)c(CN2CCN(C(=O)OCCc3cccc(Cl)c3)CC2)cc1OC
  / | 0.15
- N=C1SCCN1CC(=O)c1ccc(O)cc1
  1.1 | /
- Cc1cc(Oc2c([N+](=O)[O-])cc(C(F)(F)F)cc2[N+](=O)[O-])ccc1Cl
  / | 0.18
- CC(Nc1ncccn1)C1CC2CCC1C2 (centres undefined)
  -0.2 | /
- COC(=O)CNC(=O)c1nc(-c2ccccc2)oc1C(F)(F)F
  / | -0.68
- CCOC(=O)Cc1c(C(=O)OCC)[nH]c(C)c1C(=O)OCc1ccccc1
  / | 0.52
- Cc1nccn1CC(O)Cn1c2ccccc2c2ccccc21 (centres undefined)
  0.55 | 11
- CCOC(=O)C1=NNC2C(=O)N(c3ccc(C)cc3C)C(=O)C12 (centres undefined)
  / | 5.9
- O=C(c1ccccc1)c1nc2ccccc2[nH]1
  2.5 | -0.93
- CSCc1nnc(NC(=O)c2ccc(S(=O)(=O)N(C)Cc3ccccc3)cc2)o1
  -1 | /
- COc1ccc(-c2cc(C(=O)Nc3cccnc3)c3ccccc3n2)cc1
  / | 56
- CCOc1ccc(C2C(C#N)=C(SCc3ccc(Cl)cc3)NC(=O)C2C(=O)OC)cc1 (centres undefined)
  / | 0.05
- Cc1ccc(CNC(=O)c2ccccc2N(C)S(C)(=O)=O)cc1
  1.5 | 0.23
- OC[C@@H]1CCCN2CCCCC12 (some centres undefined)
  -0.3 | 0.62
- N#Cc1cccnc1Br
  2.1 | /
- O=C1c2ccccc2C(=O)N1c1nc2nc(-c3ccccc3)cc(=O)n2[nH]1
  2.5 | -0.22
- COc1ccc(S(=O)(=O)N(CC(N)=O)Cc2ccccc2)cc1C
  1.1 | -0.12
- COc1ccccc1COC(=O)N1CCN(c2cc(C(F)(F)F)nc3cc(C(C)(C)C)nn23)CC1
  / | 7.6

# Compound activity: PubChem BioAssay, ICCB-Longwood Screening Facility, Harvard Medical School

# The order is random; 0.41% or so of the library scored in one or more.
